High-throughput results (PubChem)
INS promoter inh: TRM-6 insulin promoter activity inhibition. inhibition, % at 2 µM. TRM-6 cells (human fetal islet line), insulin promoter-eGFP reporter, imaging; reporter expression induced with tamoxifen. actives 0.9% (n = 130,000). AID 1273;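 active means inhibition above the mean plus 3 SD, with well images judged a real hit on visual review, cut at about 60% in these data, passing the limit was not always enough; inconclusive means inhibition over the cutoff but images rejected on review; inactive means inhibition not above the cutoff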
RGS16-Gao: RGS16-Galphao interaction regulator (human). actives 0.38% (n = 220,000). binding response (% of control), % at 10 µM. bead-based flow cytometry RGS16-Galphao binding, fluorescence; actives lie on both sides. O15492+P09471;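 active means below 25% or above 175%, edge rows of some plates excepted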;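 further: Galphao activated by GDP with aluminum fluoride before binding; 100% = wells without compound and 0% = beads without RGS; some results beyond the cut were filed as inactive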
HSV replic up: increases HSV replication in cells; HSV replication augmentation in cells, fold increase; actives 0.005% (n = 220,000); maximum fold increase;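 active means peak rise of 1.5-fold or more in the series; inconclusive means self-fluorescent or not available for retest; tested in PC3 cells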;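 further: first round at 10 µM; read as green reporter fluorescence; hits show the peak of a series up to 25 µM; 1 = signal of infected wells without compound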
GALR2 ag: agonists of human galanin receptor 2 (GALR2). actives 0.48% (n = 140,000). activation, %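 (tested at 5 µM)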. GALR2-expressing cells, agonist activation read-out. AID 803. O43603;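 active means above mean plus 3 SD of all compounds, about 5% in these data, not always enough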;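 further: 0% = vehicle buffer wells and 100% = reference agonist at full effect; tested in CHO reporter cells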
PKD1 kinase inh: blocks activity of human protein kinase D1 | Q15139 | inhibition, %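 (about 10 µM by stock and volumes)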 | actives 0.056% (n = 200,000) | PKD1 kinase fluorescence polarization assay;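 active means inhibition of 50% or more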;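 further: controls were vehicle for no effect and a reference inhibitor for full effect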
Target sequence (Q15139 whole entry, looked up): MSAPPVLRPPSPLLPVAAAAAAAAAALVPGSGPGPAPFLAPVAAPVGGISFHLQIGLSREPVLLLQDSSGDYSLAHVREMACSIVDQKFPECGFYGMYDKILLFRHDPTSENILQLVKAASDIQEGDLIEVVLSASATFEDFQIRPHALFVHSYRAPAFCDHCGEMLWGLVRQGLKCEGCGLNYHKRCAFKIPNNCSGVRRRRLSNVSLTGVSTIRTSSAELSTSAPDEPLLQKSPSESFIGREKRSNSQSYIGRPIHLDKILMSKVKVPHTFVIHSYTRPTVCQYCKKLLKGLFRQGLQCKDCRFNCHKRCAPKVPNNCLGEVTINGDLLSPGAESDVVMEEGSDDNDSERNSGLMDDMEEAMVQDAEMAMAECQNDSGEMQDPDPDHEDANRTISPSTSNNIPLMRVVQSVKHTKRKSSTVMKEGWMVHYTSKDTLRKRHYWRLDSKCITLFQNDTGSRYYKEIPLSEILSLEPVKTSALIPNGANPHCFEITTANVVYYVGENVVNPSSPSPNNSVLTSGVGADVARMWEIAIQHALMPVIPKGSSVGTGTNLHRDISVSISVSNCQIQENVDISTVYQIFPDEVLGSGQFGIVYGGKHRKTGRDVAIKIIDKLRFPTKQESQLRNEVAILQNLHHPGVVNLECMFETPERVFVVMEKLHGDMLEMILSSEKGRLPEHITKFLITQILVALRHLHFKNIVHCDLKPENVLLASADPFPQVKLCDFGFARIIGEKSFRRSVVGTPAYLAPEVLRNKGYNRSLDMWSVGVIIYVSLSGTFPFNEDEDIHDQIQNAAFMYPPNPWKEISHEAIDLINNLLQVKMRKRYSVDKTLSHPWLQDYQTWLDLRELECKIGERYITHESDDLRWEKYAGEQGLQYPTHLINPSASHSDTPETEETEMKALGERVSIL
INS promoter inh cell count: further read-out of INS promoter inh, marked with its call; normalized cell count, %; measured here: cell count, toxicity; reference of the scale not given here;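 cells exposed to compound for 48 h; stained nuclei by imaging scaled within each plate; lower means fewer cells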
HSV replic up primary fold: second read-out of HSV replic up, no call of its own (marks repeat the call); fold increase; compound at 10 µM; measured here: primary screen fold increase 10 uM; tested in PC3 cells;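 GFP signal in the first replicate; 1 = infected wells without compound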
Starred values were filed as active, the others as inactive; [ ] = dose if it differs, or a comment.

`O=C(NCC1CCCO1)c1ccc(COc2ccccc2Br)cc1` (configuration not stated) gave INS promoter inh 17, RGS16-Gao 34, GALR2 ag -0.7, PKD1 kinase inh 0 and INS promoter inh cell count 128.
`CCOC(=O)CSC1=N/C(=C\c2cccnc2)C(=O)N1c1ccc(OC)cc1` gave INS promoter inh 4, RGS16-Gao 110, HSV replic up inactive, GALR2 ag -0.8, PKD1 kinase inh 2, INS promoter inh cell count 142 and HSV replic up primary fold 1.
Screening CC(Sc1cnccn1)C(=O)O (configuration not stated) returned INS promoter inh 56, RGS16-Gao 100, HSV replic up inactive, PKD1 kinase inh 2, INS promoter inh cell count 107 and HSV replic up primary fold 1.2.
For CC(C)(C)NC(=O)NC(=O)CSc1nnc2ccccn12 the results were INS promoter inh 53, RGS16-Gao 104, HSV replic up inactive, GALR2 ag -2.8, PKD1 kinase inh 0, INS promoter inh cell count 110 and HSV replic up primary fold 0.93.
For NC(=O)NC(=O)CC1S/C(=N/N=C2/NC(=O)CS2)NC1=O (configuration not stated) the results were RGS16-Gao 102, HSV replic up inactive, PKD1 kinase inh -1 and HSV replic up primary fold 1.
`COc1ccc(S(=O)(=O)Cc2ccc(C(=O)NCCc3ccc(S(N)(=O)=O)cc3)o2)cc1` gave RGS16-Gao 183*[activator], HSV replic up inactive, GALR2 ag -3.4, PKD1 kinase inh 2 and HSV replic up primary fold 1.1.
For CNS(=O)(=O)c1cccc(C(=O)OCC(=O)c2c(N)n(C)c(=O)n(C)c2=O)c1 the results were RGS16-Gao 109, HSV replic up inactive and HSV replic up primary fold 0.88.
For CC(=O)c1cccc(NC(=O)/C=C/c2ccc([N+](=O)[O-])s2)c1 the results were INS promoter inh inactive, RGS16-Gao 113, PKD1 kinase inh 13 and INS promoter inh cell count 25.
Cc1ccccc1CSCCNC(=O)c1ccc(N(C)S(=O)(=O)c2ccccc2)cc1 was read as INS promoter inh -11, RGS16-Gao 97, HSV replic up inactive, GALR2 ag -0.8, PKD1 kinase inh 10, INS promoter inh cell count 91 and HSV replic up primary fold 0.74.
Screening Cc1cc(OCC(=O)N(C)c2ccccc2)cc2c1C(=O)CC(C)(C)O2 returned RGS16-Gao 98, HSV replic up inactive and HSV replic up primary fold 0.82.
For CCn1c(CNC(=O)c2ccccc2F)nnc1SCCOc1ccccc1 the results were INS promoter inh -18, RGS16-Gao 99, HSV replic up inactive, PKD1 kinase inh 3, INS promoter inh cell count 108 and HSV replic up primary fold 0.96.
Screening Cc1cc2ncn(C(=O)N3CCC(C)CC3)c2cc1C returned INS promoter inh 45, RGS16-Gao 88, HSV replic up inactive, GALR2 ag 0.0, PKD1 kinase inh 4, INS promoter inh cell count 107 and HSV replic up primary fold 1.
`O=C(Cc1ccccc1F)NCC1(N2CCOCC2)CCCCC1` gave RGS16-Gao 103, HSV replic up inactive and HSV replic up primary fold 1.2.
`Cc1cccc(N2CCN(C(=O)C3CCN(S(=O)(=O)N4CCOCC4)CC3)CC2)c1C` gave INS promoter inh -7, RGS16-Gao 98, HSV replic up inactive, PKD1 kinase inh -1, INS promoter inh cell count 81 and HSV replic up primary fold 1.
For CC1=CC(C)(C)N2C(=O)C3(NCCc4c3[nH]c3ccccc43)c3cc(C)cc1c32 (configuration not stated) the results were RGS16-Gao 95, HSV replic up inactive and HSV replic up primary fold 0.8.

The last three compounds of the section above lead into the next:
`O=C(Cc1ccccc1F)NCC1(N2CCOCC2)CCCCC1` gave RGS16-Gao 103, HSV replic up inactive and HSV replic up primary fold 1.2.
`Cc1cccc(N2CCN(C(=O)C3CCN(S(=O)(=O)N4CCOCC4)CC3)CC2)c1C` gave INS promoter inh -7, RGS16-Gao 98, HSV replic up inactive, PKD1 kinase inh -1, INS promoter inh cell count 81 and HSV replic up primary fold 1.
For CC1=CC(C)(C)N2C(=O)C3(NCCc4c3[nH]c3ccccc43)c3cc(C)cc1c32 (configuration not stated) the results were RGS16-Gao 95, HSV replic up inactive and HSV replic up primary fold 0.8.
Cn1cc(C(=O)N/N=C/C(Br)=C/c2ccccc2)ccc1=O was read as INS promoter inh 16, RGS16-Gao 73, HSV replic up inactive, GALR2 ag -1.7, PKD1 kinase inh -9, INS promoter inh cell count 29 and HSV replic up primary fold 0.74.
Screening N#Cc1cc(Sc2ccccn2)c(Sc2ccccn2)cc1C#N returned INS promoter inh -25, RGS16-Gao 101, HSV replic up inactive, GALR2 ag -0.5, PKD1 kinase inh 7, INS promoter inh cell count 136 and HSV replic up primary fold 0.82.
Screening Cc1ccccc1NC1=NC(=S)N(c2ccccc2)C12CCOC(C)(C)C2 (configuration not stated) returned INS promoter inh 44, RGS16-Gao 97, HSV replic up inactive, GALR2 ag -1.2, PKD1 kinase inh -11, INS promoter inh cell count 75 and HSV replic up primary fold 0.95.
For Cc1cccc(NC(=S)N(Cc2cccs2)Cc2cc3cc(C)cc(C)c3[nH]c2=O)c1 the results were INS promoter inh -71, RGS16-Gao 100, HSV replic up inactive, GALR2 ag -1.5, PKD1 kinase inh -5, INS promoter inh cell count 98 and HSV replic up primary fold 0.8.
COc1ccc(NC(=O)c2ccco2)c([N+](=O)[O-])c1 was read as RGS16-Gao 102, HSV replic up inactive, GALR2 ag 0.2, PKD1 kinase inh -2 and HSV replic up primary fold 1.1.
For Cc1cc(C)n2nc(-c3cnn(C)c3C(F)(F)F)c(Cl)c2n1 the results were INS promoter inh -123, RGS16-Gao 82, HSV replic up inactive, GALR2 ag -3.8, PKD1 kinase inh -5, INS promoter inh cell count 96 and HSV replic up primary fold 0.94.
For CC(C)(C)NC(=O)Cn1c(=O)oc2cc(S(=O)(=O)N3CCc4ccccc43)ccc21 the results were RGS16-Gao 105, HSV replic up inactive, GALR2 ag -2.0, PKD1 kinase inh 5 and HSV replic up primary fold 0.84.
For Cc1cc(NCc2ccco2)nc(N2CCC(C(=O)NC3CCCCC3)CC2)n1 the results were RGS16-Gao 90, HSV replic up inactive, PKD1 kinase inh 2 and HSV replic up primary fold 1.1.
`N#Cc1ccccc1NC(=O)COC(=O)CSc1nc2ccccc2o1` gave INS promoter inh -50, RGS16-Gao 111, HSV replic up inactive, GALR2 ag -2.1, PKD1 kinase inh 0, INS promoter inh cell count 66 and HSV replic up primary fold 0.96.
Cc1ccc(-c2nc(CN(C)Cc3ccc4nccnc4c3)c(C)o2)s1 was read as RGS16-Gao 105, HSV replic up inactive, PKD1 kinase inh 5 and HSV replic up primary fold 0.99.
`Cn1c(SCc2ccc(Br)cc2)nc2c(c1=O)SCC2` gave INS promoter inh -283, RGS16-Gao 85, HSV replic up inactive, PKD1 kinase inh -11, INS promoter inh cell count 64 and HSV replic up primary fold 0.93.
Screening Cc1ccc(S(=O)(=O)/N=C2/C=C(C3C(=O)CC(C)(C)CC3=O)C(=O)c3ccccc32)cc1 returned INS promoter inh 17, RGS16-Gao 93, HSV replic up inactive, GALR2 ag -2.8, PKD1 kinase inh 13, INS promoter inh cell count 100 and HSV replic up primary fold 0.56.
`C=CCn1c(=O)[nH]c2nc3cc(N=CN(C)C)c(C)cc3nc2c1=O` gave RGS16-Gao 97 and HSV replic up inconclusive.
`COP(=O)(OC)c1nc(-c2ccccc2)oc1NCc1ccccc1` gave INS promoter inh 27, RGS16-Gao 103, HSV replic up inactive, GALR2 ag 0.1, PKD1 kinase inh 4, INS promoter inh cell count 99 and HSV replic up primary fold 1.2.
`CSC1=NCCN1C(=O)c1c(-c2ccccc2Cl)noc1C` gave RGS16-Gao 100, HSV replic up inactive, GALR2 ag -0.5, PKD1 kinase inh -10 and HSV replic up primary fold 1.1.

3 structures already listed, sorted by SMILES length, falling:
For CC1=CC(C)(C)N2C(=O)C3(NCCc4c3[nH]c3ccccc43)c3cc(C)cc1c32 (configuration not stated) the results were RGS16-Gao 95, HSV replic up inactive and HSV replic up primary fold 0.8.
`C=CCn1c(=O)[nH]c2nc3cc(N=CN(C)C)c(C)cc3nc2c1=O` gave RGS16-Gao 97 and HSV replic up inconclusive.
Cc1ccc(-c2nc(CN(C)Cc3ccc4nccnc4c3)c(C)o2)s1 was read as RGS16-Gao 105, HSV replic up inactive, PKD1 kinase inh 5 and HSV replic up primary fold 0.99.

Going on with the list:
`O=C(CSc1nnc(-c2ccncc2)n1Cc1ccco1)c1ccc(Cl)cc1` gave INS promoter inh 52, RGS16-Gao 112, HSV replic up inactive, GALR2 ag -0.8, PKD1 kinase inh 6, INS promoter inh cell count 100 and HSV replic up primary fold 0.96.
`CCN1CCN(c2nc(N)c([N+](=O)[O-])c(Nc3ccc(C)c(C)c3)n2)CC1` gave INS promoter inh 8, RGS16-Gao 100, HSV replic up inactive, GALR2 ag 0.3, PKD1 kinase inh -4, INS promoter inh cell count 103 and HSV replic up primary fold 0.89.
Screening CN1CCN(c2nc3ccccc3nc2C(C#N)C(=O)OC2CCCCC2)CC1 (configuration not stated) returned RGS16-Gao 96, HSV replic up inactive, GALR2 ag -0.2, PKD1 kinase inh 8 and HSV replic up primary fold 0.79.
COCCNC(=O)Cn1cc2c(n1)CCC(C)C2 (configuration not stated) was read as RGS16-Gao 89, HSV replic up inactive, PKD1 kinase inh -6 and HSV replic up primary fold 0.95.
Screening COc1ccc(Br)cc1CNC(=O)C1CCN(S(=O)(=O)N2CCCCC2)CC1 returned INS promoter inh -169, RGS16-Gao 105, HSV replic up inactive, GALR2 ag 0.4, PKD1 kinase inh 3, INS promoter inh cell count 36 and HSV replic up primary fold 0.96.
`Cc1ccc(OCCCCN2CCCC(C)C2)c([N+](=O)[O-])c1` (configuration not stated) gave RGS16-Gao 99, HSV replic up inactive, PKD1 kinase inh -2 and HSV replic up primary fold 0.94.
`Cn1c(-c2ccc(F)cc2)cnc1SCC(=O)N1CCCCC1` gave RGS16-Gao 96, HSV replic up inactive, GALR2 ag -0.1, PKD1 kinase inh -15 and HSV replic up primary fold 0.92.
Screening COC(=O)c1cc(Br)c(N)cc1OC returned INS promoter inh 25, RGS16-Gao 104, HSV replic up inactive, PKD1 kinase inh 5, INS promoter inh cell count 69 and HSV replic up primary fold 1.1.
For O=C(CSc1nnc(-c2ccc(Cl)cc2)n1Cc1ccco1)c1cccs1 the results were RGS16-Gao 95, HSV replic up inactive, GALR2 ag -2.3, PKD1 kinase inh -6 and HSV replic up primary fold 0.84.
`COc1ccc(CCN2C(=NC(=O)C(C)C)SC3CS(=O)(=O)CC32)cc1` (configuration not stated) gave RGS16-Gao 43, HSV replic up inactive and HSV replic up primary fold 0.92.
For COc1ccccc1CNC(=O)C(CCSC)NC(=O)C1CCC(C)CC1 (configuration not stated) the results were INS promoter inh 9, RGS16-Gao 103, HSV replic up inactive, GALR2 ag -1.5, PKD1 kinase inh -5, INS promoter inh cell count 46 and HSV replic up primary fold 1.
Screening O=C(Nc1ccc(O)cc1)C1CCCO1 (configuration not stated) returned INS promoter inh 3, RGS16-Gao 99, HSV replic up inactive, GALR2 ag -1.9, PKD1 kinase inh -5, INS promoter inh cell count 132 and HSV replic up primary fold 0.85.
O=C(O)/C=C/C(=O)c1ccc2c(c1)NC(=O)CO2 was read as INS promoter inh -7, RGS16-Gao 83, HSV replic up inactive, PKD1 kinase inh 6, INS promoter inh cell count 99 and HSV replic up primary fold 0.94.
For COc1ccccc1-c1c(-c2ccc(O)cc2O)n[nH]c1C(F)(F)F the results were RGS16-Gao 100, HSV replic up inactive and HSV replic up primary fold 1.1.
For CCOc1cc(/C=N/NC(=O)Cn2nc([N+](=O)[O-])cc2C)cc(Br)c1OCc1ccccc1F the results were INS promoter inh 22, RGS16-Gao 101, HSV replic up inactive, GALR2 ag -2.3, PKD1 kinase inh 6, INS promoter inh cell count 103 and HSV replic up primary fold 1.1.
O=C(NC(=O)N1CCCCC1)c1ccccc1 was read as RGS16-Gao 101, HSV replic up inactive, PKD1 kinase inh -5 and HSV replic up primary fold 0.94.
For O=C(COc1ccc(Cl)cc1)N(Cc1ccccc1)c1nc(-c2ccccc2)cs1 the results were INS promoter inh 2, RGS16-Gao 99, HSV replic up inactive, GALR2 ag -1.0, PKD1 kinase inh 0, INS promoter inh cell count 79 and HSV replic up primary fold 1.
`O=C(Cc1ccccc1)N/N=C/c1cccs1` gave INS promoter inh 12, RGS16-Gao 102, HSV replic up inactive, GALR2 ag -1.4, PKD1 kinase inh -1, INS promoter inh cell count 123 and HSV replic up primary fold 0.89.
CCCCN(C)c1nc(-c2ccco2)c2c(c1C#N)CC(C)(C)OC2 was read as RGS16-Gao 99, HSV replic up inactive, GALR2 ag 0.3, PKD1 kinase inh 9 and HSV replic up primary fold 0.96.

Compounds as they come; about 1.3% have a hit in one of these screens.
